# CBX7 AlphaScr: blocks human CBX7 binding to H3K27me3 peptide | AlphaScreen His6-CBX7 / biotin-H3K27me3 peptide binding; hits give low values | O95931 | 1.1% of 66,000 active | normalised signal (fraction of DMSO) (concentration not given with the values); in the data active means normalised signal below about 0.5;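 further: 100 nL library stock added to about 20 µL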
# Target sequence (O95931 whole entry, looked up): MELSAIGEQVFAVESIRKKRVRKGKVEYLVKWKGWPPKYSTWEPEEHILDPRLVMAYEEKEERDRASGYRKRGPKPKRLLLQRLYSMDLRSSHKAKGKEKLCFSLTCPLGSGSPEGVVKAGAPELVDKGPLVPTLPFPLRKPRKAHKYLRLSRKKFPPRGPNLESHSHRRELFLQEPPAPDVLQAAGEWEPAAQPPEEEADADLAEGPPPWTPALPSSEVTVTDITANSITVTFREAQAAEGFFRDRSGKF
# CBX7 AlphaScr z-score: also measured in CBX7 AlphaScr; calls as there; z-score; measured here: z-score of CBX7 signal; some inactives read as strong as hits; reference of the scale not given here;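 same signal on another scale; lower means less binding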
# * = called active by the depositor. Only part of the results is shown (hit frequency here may not be typical).
SMILES,CBX7 AlphaScr,CBX7 AlphaScr z-score
COc1ccccc1CN1C(=O)CCC1(C)C(=O)NC1CCC(C)CC1 (stereo not drawn),0.859,-2.31
Cc1onc(-c2ccccc2)c1C(=O)Nc1ccc(S(=O)(=O)N2CCOCC2)cc1,0.993,-0.236
O=C(CN1C(=O)c2ccccc2Sc2ccc(C(=O)N3CCCC3)cc21)NCCC1=CCCCC1,0.902,-1.3
CC(=O)Nc1ncc2c(n1)CC(c1ccc(C)cc1)CC2=O (stereo not drawn),0.995,-0.14
Cc1ccc(-c2nc(NC(=O)CSc3cc(C)c4ccccc4n3)ns2)cc1,0.981,-0.243
CCc1ccc(NC(=O)CN2C(=O)c3ccccc3S2(=O)=O)cc1,0.982,-0.416
Cc1sc2ncn(CC(=O)O)c(=O)c2c1S(=O)(=O)N1CCN(C)CC1,1.1,0.271
O=C(CSc1nnc(-c2ccccc2F)o1)N1CCOCC1,1.05,2.32
Cc1ccc(C(C)C)c(OCC(=O)Nc2c(C(=O)c3ccc(Cl)cc3)oc3ccccc23)c1,0.983,-0.059
CC(C)CCNC(=O)c1csc2c1CCCCC2,0.92,-0.316
Cc1ccc2nc(SCc3ccccc3C)[nH]c2c1,1.04,1.78
CC12C(=O)N(c3cccc(Cl)c3)C(=O)C1C1C=CC2C1 (stereo not drawn),1.05,0.745
COC(=O)c1ccccc1NC(=O)c1nn2c(C(F)(F)F)cc(-c3ccc(C)cc3)nc2c1Cl,1.08,0.54
CCOc1ccccc1CNC(=O)CN1C(=O)CSc2ccc(S(=O)(=O)N3CCOCC3)cc21,0.95,-0.898
COc1ccc(CN2CCN(Cc3ccc(OC)c(OC)c3OC)CC2)c(OC)c1,0.854,-2.49
CC(CCc1ccccc1)NC(=O)c1csc2c1CCCCC2 (stereo not drawn),1.03,0.71
COc1ccc2nc(NC(=O)CSc3nc4ccccc4n3C(C)=O)sc2c1,0.997,-0.085
CCOC(=O)C1CCCN(c2c(OCC)c(=O)c2=O)C1 (stereo not drawn),1.06,0.629
CCc1cccc(C)c1Nc1c(-c2ccc(C)s2)nc2cnccn12,1,0.0852
COc1ccc(-c2nn(C)c3sc(C(=O)Nc4ccc(C)cc4Cl)cc23)cc1OC,0.976,-0.308

# 4 structures out of the list, sorted by SMILES length, largest number first.
SMILES,CBX7 AlphaScr,CBX7 AlphaScr z-score
O=C(CN1C(=O)c2ccccc2Sc2ccc(C(=O)N3CCCC3)cc21)NCCC1=CCCCC1,0.902,-1.3
COc1ccc(-c2nn(C)c3sc(C(=O)Nc4ccc(C)cc4Cl)cc23)cc1OC,0.976,-0.308
CC(=O)Nc1ncc2c(n1)CC(c1ccc(C)cc1)CC2=O (stereo not drawn),0.995,-0.14
CC(CCc1ccccc1)NC(=O)c1csc2c1CCCCC2 (stereo not drawn),1.03,0.71

# Other results
SMILES,CBX7 AlphaScr,CBX7 AlphaScr z-score
CC(C)(C)OC(=O)N1CCC(c2c(C(=O)Nc3ccccc3)cnn2-c2ccccc2)CC1,0.845,-1.56
O=C(Nc1cccc(C(F)(F)F)c1)c1cccnc1N1CCCCC1,0.989,-0.199
Cc1ccc(CCNC(=O)CCC(=O)Nc2ccc3nc(N4CCCCC4)cc(C)c3c2)cc1,1.05,1.15
CCc1nnc(NC(=O)CCC2=NS(=O)(=O)c3ccccc3N2)s1,0.98,-0.509
CCOCCCN1C(=O)CN(C2CCCCCC2)C(=O)C1c1ccc(OC)cc1 (stereo not drawn),0.856,-0.58
COc1ccccc1NC(=O)Cn1cnc2sc(C(=O)N(C)C3CCCCC3)c(C)c2c1=O,1.21,2.03
O=C(Cn1ccc2ccccc2c1=O)NCCC(=O)N1CCOCC1,1,-0.00672
COc1ccc(-c2nc(SCC(=O)Nc3ccc4c(c3)OCO4)c(-c3ccc(OC)cc3)[nH]2)cc1,1.01,0.695
COc1ccccc1C(O)Cc1nc2ccccc2n1C (stereo not drawn),1.06,1.46
CCOC(=O)N1CCC(NC(=O)CCc2nc(-c3ccc(C)cc3)no2)CC1,1.27,4.14
O=C(CN1C(=O)COc2ccc(S(=O)(=O)N3CCCCCC3)cc21)N1CCc2ccccc2C1,0.974,-0.0644
Cc1cccn2cc(-c3cccc(NS(=O)(=O)c4ccc(Br)cc4)c3)nc12,0.983,-0.76
COc1ccc2c(c1)c(=O)c(S(=O)(=O)c1ccc(Cl)cc1)cn2CC(=O)Nc1ccccc1,1.02,0.28
Cc1cc(C)cc(-c2nc(-c3ccc(Cl)cc3)no2)c1,1.22,3.42
COc1cc(-c2nc3c(c(C)nn3-c3ccccc3)c3cc(OC)c(OC)cc23)ccc1O,1.09,3.66
CC(C)OCCCNC(=O)c1ccc2c(c1)N(Cc1ccc(F)cc1)C(=O)c1ccccc1S2,1,0.19
CC(C)CCNC(=O)c1ccc2c(c1)N(Cc1cccc(Cl)c1)C(=O)CS2,1,0.0569
O=C(CN1CCCC1)Nc1c(C(=O)C2CC2)oc2ccccc12,1.04,1.02
CC(NC(=O)c1cc(=O)[nH]c2ccc(S(=O)(=O)N3CCOCC3)cc12)c1ccccc1 (stereo not drawn),1.05,0.58
O=C(CSc1nncc2ccccc12)N1CCCCC1,0.71,-1.14

# The closing 3 compounds of the section above lead into the next.
SMILES,CBX7 AlphaScr,CBX7 AlphaScr z-score
O=C(CN1CCCC1)Nc1c(C(=O)C2CC2)oc2ccccc12,1.04,1.02
CC(NC(=O)c1cc(=O)[nH]c2ccc(S(=O)(=O)N3CCOCC3)cc12)c1ccccc1 (stereo not drawn),1.05,0.58
O=C(CSc1nncc2ccccc12)N1CCCCC1,0.71,-1.14
CCN1CCCC1CNC(=O)C1CC(=O)Nc2ccccc21 (stereo not drawn),1.63,1.29
COc1ccc(CNC(=O)c2cc(Nc3ccc(C)cc3C)nc3ccccc23)cc1,1.01,0.118
Cc1cccc(C)c1NC(=O)c1ccc2c(c1)NC(=O)c1ccccc1S2,1.16,1.19
COc1cccc2cc(C(=O)NCCCN3CCOCC3)c(=O)oc12,1.02,0.478
Cc1cccc(OCCn2c(SCC(N)=O)nc3ccccc32)c1,1.22,0.772
CCOC(=O)C1=C(C)NC(=S)NC1c1cn(-c2ccccc2)nc1-c1ccc(Cl)cc1 (stereo not drawn),0.808,-1.96
COc1ccc(OC)c(Nc2nc(C)nc3sc(C)cc23)c1,1,0.0194
CC(C)C(NC(=O)C1CCCCC1)C(=O)NC1CCN(Cc2ccccc2)CC1 (stereo not drawn),1.04,1.29
O=C(NCCCN1CCCC1)c1ccc2c(c1)N(Cc1ccccc1)CCS2,0.953,-0.0628
Cc1cc(C(F)(F)F)nn1CC(=O)Nc1ccc2nc3n(c(=O)c2c1)CCCCC3,1.02,0.763
COc1ccc(CNC(=O)CCCc2cn(C)c3ccccc23)c(OC)c1,0.787,-1.67
O=C(CSc1nc2ccccc2o1)Nc1nncs1,1.04,0.475
CC(C)N(CCNC(=O)C1CCC(=O)N1Cc1ccc(F)cc1)Cc1ccccc1 (stereo not drawn),1.04,1.12
Cc1ccc2oc(-c3ccc(C)c(NC(=O)c4cccc5c(Br)cccc45)c3)nc2c1,1.14,3.52
CC1CCCCN1CCNC(=O)c1ccc2c(c1)NC(=O)c1ccccc1N2 (stereo not drawn),1.07,0.589
CCCCNC(=O)CCC(=O)Nc1ccc2nc(N3CCC(C)CC3)cc(C)c2c1,1.06,2.51
CCOc1ccc2nc(C(=O)Nc3cccc(CC)c3)sc2c1,1.07,1.94
COc1ccc(-c2noc(N(C)CC(=O)Nc3ccc4c(c3)OCCO4)n2)cc1,0.971,-1.01
O=C(c1cc(-c2ccc(Br)cc2)on1)N1CCCCCC1,1.04,0.399
CCS(=O)(=O)N1CCCC(C(=O)NCCc2ccc(OC)c(OC)c2)C1 (stereo not drawn),1.02,1.21
COc1ccc2nc(NC(=O)C3(S(=O)(=O)c4ccc(C)cc4)CC3)sc2c1,0.991,-0.17
COc1cc2c(cc1OC)C(C(=O)NC1CCCCC1)C1c3ccccc3CCN1C2=O (stereo not drawn),1.02,0.688
COc1ccccc1-c1cc(C(=O)Nc2c(C)nn(Cc3ccc(F)cc3)c2C)no1,0.943,-1.52
O=C1N(c2cccc(Cl)c2)C2CS(=O)(=O)CC2N1c1cccc(C(F)(F)F)c1 (stereo not drawn),1.03,0.7
O=C(CN1C(C(=O)c2ccccc2)=C(N2CCCCC2)c2ccccc2S1(=O)=O)c1ccccc1,0.692,-0.64
CC(CCc1ccccc1)NC(=O)c1cc2c(s1)-c1ccccc1OC2 (stereo not drawn),1.53,12.8
Cc1ccccc1Nc1cc(C(=O)NC2CCCC2)c2ccccc2n1,1.03,0.854
COc1ccc(C(=O)Nc2c3c(nn2-c2ccc(Cl)cc2)CS(=O)(=O)C3)cc1,0.928,-0.474
COc1ccc(CN(C(=O)c2cccc(Cl)c2)C2CCS(=O)(=O)C2)cc1OC (stereo not drawn),1.16,2.08
CCCN1Cc2cccc(C(=O)NCC(OC)OC)c2C1=O,0.996,-0.00376
O=C1c2ccccc2C(=O)N1c1ncc(Cc2ccccc2Cl)s1,0.898,-1.43
COc1cccc(-c2cc(C(=O)Nc3cc(C(F)(F)F)ccc3Cl)no2)c1,0.952,-0.281
CC(C)n1cnc2cc(NCc3cccc4ccccc34)ccc21,0.253*,-21.5*
COc1ccc(C2CC(c3ccccc3OC(F)F)n3ncnc3N2)cc1 (stereo not drawn),0.973,-0.951
COc1ccc(OC)c(Nc2nnc(Cc3cccnc3)c3ccccc23)c1,0.913,-1.92
COc1cccc(-n2nc(C(=O)N3CCN(c4ccccc4)CC3)c3ccccc3c2=O)c1,1.03,0.816
Cc1c(C(=O)N2CCOCC2)oc2ccc(S(=O)(=O)N3CCCC3)cc12,1.05,0.915
CCC1CCCCN1CCNS(=O)(=O)c1ccc2c(c1)CCN2C(C)=O (stereo not drawn),0.971,-0.116
CCC(Cc1ccccc1)NC(=O)c1ccc2nc(-c3ccccc3NC(C)=O)c(=O)[nH]c2c1 (stereo not drawn),1.02,0.383
CC1=Nc2cc(C(=O)NCc3ccc4c(c3)OCO4)ccc2Sc2ccccc21,0.944,-0.897
Cc1ccc(NC(=O)CN2C(=O)CSc3ncccc32)c(Cl)c1,0.968,-0.0799
Cc1cccc(-c2nc(CN3CCCC(C(=O)NCCN4CCOCC4)C3)c(C)o2)c1 (stereo not drawn),1.01,0.319
CCCCN(CCCNC(=O)CN1C(=O)COc2ccccc21)Cc1ccccc1,1.01,0.146
COc1ccccc1C(=O)NCc1nc2ccccc2n1Cc1ccccc1C,0.981,-0.214
Cc1c(C(=O)Nc2ccc(S(=O)(=O)N3CCCCC3C)cc2)oc2ccccc12 (stereo not drawn),1,0.123
CCN(CC)S(=O)(=O)c1ccc2c(c1)N(CC(=O)NCCN(C)C1CCCCC1)C(=O)CS2,0.981,-0.654
CCC(Sc1nc2ccccc2s1)C(=O)Nc1ccc(S(N)(=O)=O)cc1 (stereo not drawn),0.981,-0.0394
COCCNc1nc(-c2ccccc2F)nc2ccccc12,1.09,0.164
O=C(c1ccccc1)N1CCN(c2nc(-c3ccccc3)c3cc([N+](=O)[O-])ccc3n2)CC1,0.975,-0.25
Cc1ccc(-n2c3c(cc(C(=O)Nc4ccc(C)c(C)c4)c2=O)C(=O)CC(C)(C)C3)cc1,1.06,0.652
O=C(CC1NC2CCCCC2NC1=O)Nc1ccc2c(c1)OCCO2 (stereo not drawn),0.994,-0.133
CCc1ccc(N2CC(c3nc4ccccc4n3CCC(C)C)CC2=O)cc1 (stereo not drawn),0.862,-3.15
Cc1noc(C)c1S(=O)(=O)N(C)CC(=O)N1CCc2ccccc21,1.04,0.595
COc1cc(OC)cc(C(=O)Nc2cc(-c3nn4c(C)nnc4s3)ccc2C)c1,0.966,-1.01
CC(=O)N1CCc2cc(S(=O)(=O)NCCC(=O)Nc3cccc(C)c3)ccc21,1.01,0.179
Cc1ccccc1-n1nc2c(c1NC(=O)c1ccc(OC(C)C)cc1)CS(=O)(=O)C2,1.05,0.302
CC(=O)N1CCc2cc(S(=O)(=O)NC(C)C(=O)O)ccc21 (stereo not drawn),0.974,-0.684
O=C(NCCc1nc(-c2ccccc2)cs1)c1ccccc1,1.05,1.18
CCOC(=O)N1CCN(c2c(NCCc3ccccc3)c(=O)c2=O)CC1,0.984,-0.449
Cc1ccc(N2C(=O)c3ccccc3C2Nc2ccc(C)c(C)c2)nc1 (stereo not drawn),0.804,-2.63

# 3 entries from above, sorted by the number in CBX7 AlphaScr z-score, high to low.
SMILES | CBX7 AlphaScr z-score
Cc1cccc(-c2nc(CN3CCCC(C(=O)NCCN4CCOCC4)C3)c(C)o2)c1 (stereo not drawn) | 0.319
CCCCN(CCCNC(=O)CN1C(=O)COc2ccccc21)Cc1ccccc1 | 0.146
COc1ccccc1C(=O)NCc1nc2ccccc2n1Cc1ccccc1C | -0.214

# More compounds follow.
SMILES,CBX7 AlphaScr,CBX7 AlphaScr z-score
COc1ccc(-n2c(C)nc3cc(C(=O)NCc4ccc(C)cc4)ccc32)cc1,0.809,-3.3
COC(=O)CNC(c1ccccc1)c1cc(Br)ccc1NS(=O)(=O)c1ccc(C)cc1 (stereo not drawn),1.02,0.724
COC(=O)c1ccccc1S(=O)(=O)Nc1nn[nH]n1,1.01,0.312
CCOc1cccc(C(=O)Nc2c(C(=O)c3ccccc3)oc3ccccc23)c1,1.23,0.817
COc1ccc(NC(=O)CCCNC(=O)Cn2cnc3sc(C)c(C)c3c2=O)cc1OC,1.12,1.35
O=C(CN1CCN(Cc2ccc(Cl)cc2)C1=O)NCCN1CCCC1,0.909,-1.31
Cn1c(=O)c2c(ncn2CC(=O)N2CCC(Cc3ccccc3)CC2)n(C)c1=O,0.747,-0.999
COC(=O)CCC1CN(Cc2ccccc2)CCC1N1CCc2cc(OC)c(OC)cc2C1 (stereo not drawn),1.01,0.0365
CCN1CCN(c2cc(C)c3cc(NC(=O)CC4CCCCC4)ccc3n2)CC1,0.994,-0.265
O=C(NC1CCCC1)c1ccc2c(c1)N(Cc1ccccc1F)C(=O)c1ccccc1S2,0.954,-2.2
O=c1cc(Cc2nnc(SCc3ccc(F)cc3)n2-c2ccc(Cl)cc2)[nH]c(=O)[nH]1,0.973,-1.06
CC(C)(C)c1ccc(C(=O)Nc2ncc(Cc3cc(Cl)ccc3Cl)s2)cc1,1.04,0.944
COc1cccc(N2CCN(C(=O)c3ccc4nc(N5CCC(C)CC5)sc4c3)CC2)c1,0.993,-0.0684
O=C(O)CCc1ccc(-c2ccccc2)n1-c1ccccc1C(F)(F)F,0.8,-3.46

# High-throughput results from PubChem BioAssay.
